# MenB inh – blocks the Mycobacterium tuberculosis MenB enzyme; P9WNP5; MenB enzyme assay, absorbance read-out; some hits fall short of the stated cut; inhibition, %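 (about 12 µg/mL by stock and volumes)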; hit rate 0.43% among 100,000; AID 540299;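 active = mean of two replicates above 30%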;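 also: 0% = no compound and 100% = wells with inactive enzyme; the first replicate is given; strong numbers were not always called active; inactives centre near -10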
# Target sequence (P9WNP5 whole entry, looked up): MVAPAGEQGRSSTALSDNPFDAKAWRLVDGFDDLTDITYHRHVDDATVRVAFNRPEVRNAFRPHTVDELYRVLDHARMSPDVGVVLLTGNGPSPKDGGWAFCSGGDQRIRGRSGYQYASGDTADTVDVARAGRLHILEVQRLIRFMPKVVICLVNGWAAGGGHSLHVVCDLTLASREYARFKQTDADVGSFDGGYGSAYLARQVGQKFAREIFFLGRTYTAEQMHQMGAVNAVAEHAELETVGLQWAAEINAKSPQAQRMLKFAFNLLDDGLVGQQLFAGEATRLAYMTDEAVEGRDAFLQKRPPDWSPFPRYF
# MbtI inh – MbtI salicylate synthase inhibition; purified MbtI enzyme, fluorescence intensity read-out; hit rate 0.89% among 100,000; inhibition, %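 (about 17 µg/mL by stock and volumes)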; P9WFX0;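 active = above 50% in both replicates, above 80% if mildly self-fluorescent; inactive = the rest, strongly fluorescent compounds included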;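 also: 0% = mean of negative and 100% = mean of positive controls; one replicate is shown; some compounds called inactive have numbers as strong as hits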
# Target sequence (P9WFX0 whole entry, looked up): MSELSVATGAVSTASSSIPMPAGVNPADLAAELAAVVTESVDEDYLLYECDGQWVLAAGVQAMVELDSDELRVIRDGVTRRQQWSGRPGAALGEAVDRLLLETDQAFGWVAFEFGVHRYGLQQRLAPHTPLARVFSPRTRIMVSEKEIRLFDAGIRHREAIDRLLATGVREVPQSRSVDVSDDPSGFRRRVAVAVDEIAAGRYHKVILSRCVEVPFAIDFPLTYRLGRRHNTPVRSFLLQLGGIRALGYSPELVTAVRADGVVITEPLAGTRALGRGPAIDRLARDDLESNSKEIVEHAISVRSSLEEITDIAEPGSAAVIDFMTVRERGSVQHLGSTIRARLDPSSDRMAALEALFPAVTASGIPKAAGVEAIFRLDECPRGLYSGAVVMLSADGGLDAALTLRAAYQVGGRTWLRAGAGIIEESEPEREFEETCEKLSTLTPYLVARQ
# PV pol inh – inhibitors of poliovirus RNA polymerase binding and polymerization; poliovirus polymerase elongation, fluorescence polarization; active compounds read low; % elongation, % (compound at 16.7 µg/mL); hit rate 0.66% among 150,000; in the data active = % elongation below about 90%; also: some results filed as inactive read as strong as hits
# PV pol inh intensity – second read-out of PV pol inh, no call of its own (marks repeat the call); % elongation; measured here: total intensity read-out; formula for this scale not given here;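 total fluorescence in place of polarization; lower means less elongation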
# * hit, by the source's call; x = not tested or not shown.
SMILES,MenB inh,MbtI inh,PV pol inh,PV pol inh intensity
CCOC(=O)C1=C(C)OC(N)=C(C(=O)OCC)C1c1cccnc1 (stereo unspecified),-10,x,101,107
Cc1[nH]c2ccc(-c3nnc(SCC(=O)N4CCc5ccccc54)o3)cc2c1C,-3,-4,102,101
Cc1cccc2nc(CSCc3ccco3)cn12,x,20,102,99
CC1=C(/C=C/C(C)=N\NC(=O)c2ccncc2)C(C)(C)CCC1,-7,-8,103,100
Cc1cccc(C(=O)OCC(=O)NCc2ccccc2Cl)c1O,x,5,102,97
CCCOC(=O)C(N)c1ccccc1 (stereo unspecified),-7,-4,101,106
Cc1ccc(N2C(=O)N(CC(=O)N3CCC(C)CC3)c3ccccc3S2(=O)=O)cc1,-12,-7,103,103
Cc1ccc(NS(=O)(=O)c2ccccc2)c(NS(=O)(=O)c2ccccc2)c1,-7,-9,106,96
COC(=O)c1ccc(NC(=O)CSC2=NC(=O)CC(=O)N2)cc1,-81,12,100,101
Cc1ccc(N=Cc2ccc3c(c2)OCO3)c(Br)c1,-16,x,107,109
CC(C)(C)c1nnc2sc(SCC(=O)NCc3ccco3)nn2c1=O,-15,12,102,108
Cc1sc(-n2c(C)cc(/C=C(\C#N)C(=O)NCc3ccco3)c2C)c(C#N)c1C,19,12,102,102
COc1ccc(C(=O)NCCSc2ccccc2C)cc1,-3,-10,101,103
CCOC(=O)c1ccc(Nc2nc3ccccc3n3cnnc23)cc1,-11,-8,102,100
S=C1N[C@H]2CCCC[C@@H]2N1,-21,5,99,102
COc1cc(S(=O)(=O)N2CCN(c3ccccc3F)CC2)c(OC)cc1Cl,33,-6,99,103
Cn1c(=O)nc2n(-c3cccc(C(F)(F)F)c3)c3ccccc3cc-2c1=O,-19,x,109,119
Cc1ccc(C)n1Cc1cccs1,-7,3,99,100
COC(=O)c1c(C)[nH]c(-c2csc(N)n2)c1C,-7,14,99,100
O=C(c1cccc(NS(=O)(=O)c2ccc(F)c(F)c2)c1)N1CCCCC1,x,-11,103,107
Oc1c(C(c2ccc(F)cc2)N2CCCCC2)ccc2cccnc12 (stereo unspecified),x,36,105,104
O=C(O)CC1(c2ccccc2)C(=O)c2ccccc2C1=O,2,12,100,95
CN(CCCc1ccccc1)CCc1ccccn1,-19,-7,100,103
C=CCN1CCN(C(=O)C2CC2)CC1,-27,-5,105,101
CCOC(=O)C1=C(NN(C)c2ccccc2)C(=O)N(C)C1,-26,x,104,104
CC(C)=CC(=O)Nc1nc(C)c(C)s1,4,14,100,101
C=CCn1c(N)c(-c2nc3ccccc3[nH]2)sc1=S,-100,26,102,109
CC1(C)Cc2nc(N3CCCC3)c(C#N)cc2CS1,10,119,100,100
O=S(=O)(Nc1cccc(-c2ccc(N3CCCCC3)nn2)c1)c1ccc2c(c1)OCCO2,-26,3,104,102
c1ccc2c(c1)C(=NN1CCOCC1)c1ccccc1-2,-36,-9,106,114
O=C1c2ccccc2C(=O)N1Cn1ncc(Cl)c(Cl)c1=O,-16,1,106,116
CCN(CC)C(=S)NC(=S)c1ccc(C)cc1,-19,9,115,119
COc1ccc(-c2cc(-c3ccccc3)nc(SCC(=O)N3CCCCC3)c2C#N)cc1,-16,x,90,93
NCCCn1cncn1,8,-5,96,101
Cc1ccc(OCc2ccc(C(=O)Nc3ncc(Br)s3)o2)cc1C,13,33,100,103
O=C(NCc1ccccn1)c1cc(-c2ccccc2F)no1,5,-3,103,103
CC(C)c1ccc(NC(=O)C2CCC(CNS(=O)(=O)c3cccs3)CC2)cc1 (stereo unspecified),-13,0,102,99
O=C(CSc1nnnn1Cc1ccccc1)NCCc1ccccc1,5,-1,100,102
Nc1nccc(-c2ccc(NC(=O)Nc3cccc(Cl)c3)cc2)n1,-15,-311,104,103
CCC(C)NC(=O)C1CC1c1ccccc1 (stereo unspecified),-23,-5,98,101
CC(C)CNC(=O)c1ccc(N(C)C)cc1,-18,19,103,103
O=c1oc(-c2cc3ccccc3s2)ns1,-19,x,85*,89*
Cc1cc(NS(=O)(=O)c2ccc(N3C(=O)C4C5C=CC(C5)C4C3=O)cc2)nc(C)n1 (stereo unspecified),-17,-6,99,103
O=C(CCC1CCCCC1)Nc1cc(Cl)ccc1N1CCOCC1,-22,-12,105,108
COc1ccc(OCCSc2ncccn2)cc1,-25,-15,103,103
Cc1ccc(S(=O)(=O)NCC(=O)OCc2nnc(-c3ccccc3)o2)cc1C,-19,-14,98,109
Cc1ccc(NC(=O)CN(C)C(=O)c2cccc(S(=O)(=O)N3CCOCC3)c2)cc1,6,2,101,107
O=C1CCC(=O)N1CNc1ccc(-c2ccccc2)cc1,-8,x,105,109
CN(C)C(=O)CSc1nnc(Nc2ccccc2)n1-c1ccccc1,-11,9,100,103
CC(OCCCN)c1ccccc1 (stereo unspecified),-5,-7,99,104
COc1ccccc1CCN=C(N)NS(C)(=O)=O,-36,-5,99,104
Cc1cc(C)nc(NCn2c(=S)sc3ccccc32)n1,-32,33,101,104
CCCN1CCC(NCCc2ccccc2OC)CC1,3,-2,102,103
O=c1c2cc(NC(=S)NC3CCN(Cc4ccccc4)CC3)ccc2nc2n1CCCCC2,6,-2,102,101
COc1cc(NC(=O)C2CC3C=CC2C3)cc(OC)c1OC (stereo unspecified),-15,-7,107,98
C=CCN=C1NN=C(c2cc(C)n(CC=C)c2C)CS1,-49,-91,99,95
CN(C)C(=O)COc1ccc2ccc(=O)oc2c1,2,107,111,114
O=C(O)Cc1cc(=O)n(-c2ccccc2)[nH]1,-27,-3,103,106
CC(=O)Nc1ccccc1OCC(O)CS(=O)(=O)c1ccc(C(F)(F)F)cn1 (stereo unspecified),-13,-3,103,99
COC(=O)c1c(C)nc(C)c(C(=O)OC)c1-c1csc(S(=O)(=O)N2CCOCC2)c1,-25,-2,104,106

# 5 records picked at random from the list so far, as already listed:
SMILES,MenB inh,MbtI inh,PV pol inh,PV pol inh intensity
COC(=O)c1c(C)nc(C)c(C(=O)OC)c1-c1csc(S(=O)(=O)N2CCOCC2)c1,-25,-2,104,106
C=CCN1CCN(C(=O)C2CC2)CC1,-27,-5,105,101
Cc1ccc(NS(=O)(=O)c2ccccc2)c(NS(=O)(=O)c2ccccc2)c1,-7,-9,106,96
O=C(CCC1CCCCC1)Nc1cc(Cl)ccc1N1CCOCC1,-22,-12,105,108
O=c1oc(-c2cc3ccccc3s2)ns1,-19,x,85*,89*

# Next part:
SMILES,MenB inh,MbtI inh,PV pol inh,PV pol inh intensity
O=C(CSc1ccccc1C(=O)O)NCCc1ccccc1,x,-4,101,106
COc1ccc(-c2cc(-c3ccccc3)c(C#N)c(SCC3(O)CCCCC3S(C)=O)n2)cc1 (stereo unspecified),-20,98,103,102
CN(Cc1ccco1)C(=O)CSc1nnc(Cc2ccccc2)o1,-25,-5,109,123
Cc1nc(=O)cc(-c2ccccc2)n1C,-14,4,101,104
CNC(=O)c1c(C)nc(SCC(=O)Nc2ccccc2Cc2ccccc2)c(C#N)c1-c1ccco1,0,15,101,96
CS(=O)(=O)Nc1ccc(C(=O)NC23CC4CC(CC(C4)C2)C3)cc1,2,-13,100,102
Cc1cc(C)cc(C(=O)OCC(=O)Nc2cccc(C(F)(F)F)c2)c1,x,-1,102,95
O=C(CCSCc1cnn(-c2ccccc2)c1-n1cccc1)NCC1CCCO1 (stereo unspecified),-1,-1,103,97
CSc1sc(C#N)c(C)c1-c1ccn(C(=O)c2ccc(Cl)cc2)n1,-9,-12,107,113
COc1ccc(CN(C)C(=O)c2cccc(C)c2)cc1OC,-29,-8,107,102
O=C(O)CCN1C(=O)SC(Nc2ccc(Cl)cc2)C1=O (stereo unspecified),-16,-7,104,101
O=C(O)CCc1cn(CCC(=O)O)cn1,-5,x,101,110
Cc1nc2ccc(S(=O)(=O)NC(CC(C)C)C(=O)NCc3cccs3)cc2s1 (stereo unspecified),-4,-7,100,102
CSc1ccccc1NC(=O)CN1CCN(C(C)=O)CC1,-8,11,102,105
COc1ccc(Cl)cc1N1C(=O)CC(NC(C)(C)C)C1=O (stereo unspecified),-5,16,104,103
Cn1cc(S(=O)(=O)N2CCc3ccccc32)cc1C(=O)N1CCOCC1,17,-10,100,102
CCOC(=O)C(Cc1ccccc1)N1C(=O)c2ccccc2C1=O (stereo unspecified),-34,-23,104,101
CCC(=O)Nc1cc2nn(-c3ccc(Cl)cc3)nc2cc1C,14,16,104,102
CCN1CCN(c2ncnc3sc(C(=O)N4CCCC4)c(C)c23)CC1,-24,-9,103,101
O=C1CCCN1C(=O)CSc1nnc(-c2ccccc2)c(-c2ccccc2)n1,-25,9,104,109
Cc1onc(-c2ccccc2Cl)c1C(=O)NC1=NCCS1,5,x,106,97
CCc1ccc(N(CC(=O)N=Nc2c(O)[nH]c3ccccc23)S(C)(=O)=O)cc1,-6,12,101,102
O=C(C1CC1)N1CCc2cc(Br)cc(S(=O)(=O)NCCc3ccccc3Cl)c21,-22,3,102,98
CC(C(=O)NC1CC2CCC1C2)N(c1ccccc1)S(C)(=O)=O (stereo unspecified),-13,-5,100,99
Cc1ccccc1C(=O)NCc1ccc2c(c1)CCO2,-19,-4,103,98
CNC1CCC(C(F)(F)F)N(C)C1=O (stereo unspecified),5,-6,104,103
O=C(Nc1ccccc1)Nc1ccc(NC(=O)c2ccccc2O)cc1,-15,-13,105,102
CN(CCOc1ccccc1)Cc1nc2ccsc2c(=O)[nH]1,-3,-2,105,108
CCc1nnc(NC(=O)C2CCCCC2)s1,-19,100*,101,103
CC(C)(C)C(=O)NC(c1ccccc1)c1c(O)ccc2ccccc12 (stereo unspecified),10,-35,99,102
O=C(O)C1CCN(S(=O)(=O)c2ccc(Cl)cc2)CC1,4,12,93,94
Cc1nn(C)c2[nH]c3c(c(=O)c12)CSC3,-13,12,101,97
CC(C)(C)NC(=O)CCN1C(=O)c2ccccc2S1(=O)=O,-3,14,x,x
COc1ccc(-n2c(SCC(=O)c3ccc4c(c3)NC(=O)CO4)nc3ccccc3c2=O)cc1OC,-5,-2,100,97
O=C(NC1CC1)c1ccc(-c2ccccc2)cc1,5,0,103,102
Cc1ccc(C(=O)C2COC(=O)C2)cc1 (stereo unspecified),-21,-9,102,105
Nc1cc(-c2ccccc2)ccc1O,-31,108,102,101
COc1ccc(C(=O)NCCc2nc(-c3ccccc3Cl)no2)cc1OC,-19,-5,102,101
O=C(NC1CCCCC1)C1CC(c2ccccc2O)=NO1 (stereo unspecified),5,-10,103,103
O=C(COC(=O)C1CC(=O)N(Cc2ccccc2)C1)Nc1ccc(Cl)cc1F (stereo unspecified),-21,10,104,104
Cc1ccc2cc3cc(C(=O)NCCCN4CCN(Cc5ccccc5)CC4)oc3nc2c1,-17,31,101,102
COc1ccccc1C(=O)Nc1ccc(C(O)(C(F)(F)F)C(F)(F)F)cc1,6,18,104,103
O=C(c1sc2ccccc2c1Cl)N1CCc2ccccc21,-7,x,104,106
O=C(CSc1ccc(-c2ccccn2)nn1)Nc1ccccc1,-28,-4,106,103
C=CCn1c(SCC(=O)Nc2nc(C)c(C)s2)nnc1-c1cc2cccc(OC)c2o1,10,2,103,102
Cc1nc2c3ccccc3nc(SCc3cc(F)cc4c3OCOC4)n2n1,-9,10,99,100
COc1ccccc1OCc1nnc(SCC(=O)N2CCc3ccccc3C2)n1C,-62,-6,101,109
CN(c1ccccc1)c1nc(-n2ccnc2)nc(-n2ccnc2)n1,-12,x,105,106
O=C(CN1C(=O)c2ccccc2C1=O)Nc1ccccc1C(=O)O,-2,-4,102,102
CN1CCN(C)C1=O,1,-10,105,110
O=C(CSC1=NCCc2ccccc21)c1ccccc1Cl,-18,17,68*,74*
O=CN1CCN(C(=O)C(Cc2c[nH]c3ccccc23)NC(=O)c2cccs2)CC1 (stereo unspecified),6,-4,104,99
O=c1sc(Nc2ccc(Cl)c(Cl)c2)nc2ccccc12,x,1,103,107
COc1ccc(-c2nnc(SCC(=O)N3CCC(c4ccccc4)=N3)n2CC2CCCO2)cc1 (stereo unspecified),-21,9,98,74
O=C1/C(=C\c2cccs2)SC(=S)N1c1ccccc1,-7,-4,102,97
COc1ccccc1CNC(=O)c1cn(C2CCCC2)c(=O)c2c1c1ccccc1n2C,-5,-3,99,101
CCN(C(=O)CSc1ncnc2ccccc12)c1ccccc1,x,-2,98,99
COc1ccc(CN2CCN(Cc3ccccc3C)CC2)cc1,-19,5,100,101
CC(C)n1nnnc1SCC(=O)c1ccc2c(c1)OCCO2,-31,11,100,102
CCn1c(=O)c(=O)[nH]c2cc(C(=O)NC3CCCc4ccccc43)ccc21 (stereo unspecified),-4,-5,103,105

# Profiles, looked up by structure:
# `Cc1cc(C)nc(NCn2c(=S)sc3ccccc32)n1` is entered as MenB inh: -32; MbtI inh: 33; PV pol inh: 101; PV pol inh intensity: 104
# `Cc1[nH]c2ccc(-c3nnc(SCC(=O)N4CCc5ccccc54)o3)cc2c1C` is entered as MenB inh: -3; MbtI inh: -4; PV pol inh: 102; PV pol inh intensity: 101
# `CCOC(=O)C1=C(C)OC(N)=C(C(=O)OCC)C1c1cccnc1` (stereo unspecified) is entered as MenB inh: -10; MbtI inh: x; PV pol inh: 101; PV pol inh intensity: 107

# Screening results (PubChem BioAssay)
